GIV-Gai inh = GIV-Galpha-i interaction inhibition | Galpha-i3/FITC-GIV peptide fluorescence polarization, 90 min; stronger effect = lower value; scaled: aluminum fluoride 0%, vehicle 100% | 210,000 tested, 0.42% active | P08753 | percent of control (FP), % (test concentration not listed) | AID 1224905;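 active means replicate mean at 85% of control or lower, very high polarization wells dropped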;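 further: wells of about 15 µL received 100 nL stock; the first replicate is given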
Target sequence (P08753 whole entry, looked up): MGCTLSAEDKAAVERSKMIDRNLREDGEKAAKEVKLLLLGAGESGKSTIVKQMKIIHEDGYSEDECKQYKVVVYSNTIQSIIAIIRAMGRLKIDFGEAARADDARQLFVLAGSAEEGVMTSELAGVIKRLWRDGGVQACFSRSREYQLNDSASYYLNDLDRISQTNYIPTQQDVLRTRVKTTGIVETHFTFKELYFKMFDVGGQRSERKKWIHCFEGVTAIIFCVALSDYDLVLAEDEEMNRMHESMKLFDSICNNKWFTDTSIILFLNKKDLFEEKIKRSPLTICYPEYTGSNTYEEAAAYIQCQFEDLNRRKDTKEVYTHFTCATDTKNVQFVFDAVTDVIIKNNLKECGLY
Sa growth 42C = blocks Staphylococcus aureus growth | S. aureus RN4220 growth, OD600, 20 h, 42 °C; stronger effect = lower value | relative growth, % (test concentration not listed) | 170,000 tested, 0.53% active;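 active means growth at 42 °C up to 50% and 20 or more points under that at 30 °C, or under 10% at both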;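 further: 300 nL library stock went into each well; scaled to the means of positive and negative controls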
HCMV UL50-53 inh = disrupts HCMV UL50-UL53 complex binding; HTRF UL50-UL53 interaction, normalized percent inhibition; inhibition, % (concentration not given with the values); 190,000 tested, 0.15% active;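 active means both replicates at 50% or more, plus weaker picks with an unusually low signal ratio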;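 further: stock transfer was 100 nL into about 20 µL; 0% = negative control wells and 100% = wells with untagged competitor protein; inactives centre near -12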
Sa growth 42C second temp = second read-out of Sa growth 42C, no call of its own (marks repeat the call); relative growth, %; measured here: growth at 30 °C;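 optical density after 20 h as mean of two plates; 100% = untreated growth and lower means inhibition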
* marks the source's active call; other numbers are inactive results; x = no result given; & = joins results of further samples.

SMILES	GIV-Gai inh	Sa growth 42C	Sa growth 42C second temp	HCMV UL50-53 inh
Cc1ccc(N2C(=O)c3ccc(Oc4cccc(N)c4)cc3C2=O)c(C)c1	97	107	87	-17
CN1CCN(C(=O)CN(c2cccc(Br)c2)S(=O)(=O)c2ccccc2)CC1	107	98	101	-7
Cc1cc(-n2c(C)cc(CNCC3(N4CCOCC4)CCCCC3)c2C)no1	x	85	99	-24
CCOc1ccc2sc(NC(=O)CN3C(=O)C4C5C=CC(C5)C4C3=O)nc2c1 (stereo not drawn)	95	92	81	-8
CC(=O)Nc1cccc(-c2nc(-c3cccc(NC(=O)Nc4ccccc4)c3)no2)c1C	109	x	x	-5
Cc1ccc(C)c(CSc2cn(CC(=O)N3CCCC3)c3ccccc23)c1	104	113	100	x
COc1ccc(CNC(=O)C2CCN(S(=O)(=O)N3CCCCC3)CC2)cc1	105	106	103	6
Cc1ccc2c(c1)CCCN2CC(=O)c1ccc2c(c1)OCCO2	110	90	87	-42
Cc1cc2c(cc1S(=O)(=O)NCCc1ccccc1)n(C)c(=O)c(=O)n2C	107	95	92	4
Cn1cc(S(=O)(=O)N2CCCCC2)cc1C(=O)N1CCN(c2ccccc2F)CC1	102&108	96	96	-4
COC(=O)Cn1nc(C)c2ccccc2c1=O	96	92	86	-20
CCOC(=O)Cn1c2c(c(-c3ccccc3OC)cc1=O)CCCC2	100	94	89	x
Cc1ccc(C)c(N2CCN(CCCNC(=O)C3COc4ccccc4C3)CC2)c1 (stereo not drawn)	100	79	71	x
COc1ccc(-c2noc(CN3CCC(C(=O)N(C)c4cc(C)ccc4C)CC3)n2)cc1OC	102	90	77	-14
Cc1cccc(C)c1NC(=O)CN(C)C(=O)c1ccccc1OC(F)F	x	108	97	10
FC(F)(F)c1cccc(NC(=S)NCCNc2nccc(C(F)(F)F)n2)c1	105	41	43	-9
CCC(C)N(C)Cc1cccc(C2(O)CCN(S(=O)(=O)c3ccc(F)cc3)CC2)c1 (stereo not drawn)	101	93	88	-8
CCc1cccc(CC)c1NC(=S)Nc1ccc(C)cc1	104	83	80	-16
O=C1CC2(Oc3ccccc3O2)C(=O)NN1	104	92	77	2
Cc1ccc(C)c(SCC(=O)OCC(=O)N2C(C)CCCC2C)c1 (stereo not drawn)	x	128	89	-38
CCOC(=O)c1sc(C)c2c(=O)n(Cc3ccccc3)c(C)nc12	110	85	92	x
Cc1ccc(S(=O)(=O)c2cnc(SCC(=O)Nc3ccccc3C(F)(F)F)[nH]c2=O)cc1C	101	113	93	10
COC(=O)c1ccccc1NC(=O)N1CCOc2ccccc21	106	102	96	-3
CCOc1ccccc1CNC(=O)c1cc(-c2ccc(C)c(C)c2)nc2ccccc12	99	112	91	x
O=C(Cn1ncn2nc(-c3cccs3)cc2c1=O)NCc1ccc(Cl)cc1	96	109	100	-15
Carrying on.
SMILES	GIV-Gai inh	Sa growth 42C	Sa growth 42C second temp	HCMV UL50-53 inh
Cc1cccc(NC(=O)CCn2cnc3ccccc3c2=O)c1	106	100	97	x
Brc1ccc2oc(-c3ccn[nH]3)cc2c1	106	120	120	-11
Clc1ccc(-c2nc(-c3cnccn3)no2)cc1	99	96	75	-12
CC1CCCN(Cc2c(O)ccc3cc(-c4nc5ccccc5s4)c(=O)oc23)C1 (stereo not drawn)	-32*	x	x	-82
Nc1cc(C(=O)N2CCCCC2)ccc1O	107	x	x	-16
CCC(C(=O)N1CCN(c2ccccc2)CC1)n1nc(C)n2c(cc3sccc32)c1=O (stereo not drawn)	102	110	88	-31
CSc1nc2c(c(=O)n1C)C1(CCCCC1)Cc1ccccc1-2	116	x	x	-1
CCC(C)C1Nc2ccc(C(=O)NCCc3ccc(OC)c(OC)c3)cc2NC1=O (stereo not drawn)	101	86	80	-36
Brc1ccc(NC2=NCCCCCC2)cc1	x	82	90	-8
CCOC(=O)Cc1csc(-c2ccc(Oc3ccc(C(F)(F)F)cn3)cc2)n1	106	99	87	x
CCc1ccccc1N1CNc2c(sc3nc(C)cc(COC)c23)C1=O	103	x	x	-92
Cn1c(=O)n(C)c2cc(S(=O)(=O)N3CCOCC3)c(Cl)cc21	99	x	x	-21
CC(C)(C)NC(=O)Cn1nnc(-c2ccc3c(c2)OCO3)n1	105	91	82	-30
CCOC(=O)c1c(NC(C)=O)sc2c1CCCCC2	x	79	82	-14
CC(C)(C)OC(=O)N1CCC(c2c(C(=O)Nc3ccc4c(c3)OCO4)cnn2-c2ccc(F)cc2F)CC1	112	84	82	x
CC(C(=O)Nc1ccccc1C(=O)NCc1ccco1)N(c1ccccc1)S(C)(=O)=O (stereo not drawn)	107	97	98	12
CC1C(=O)c2ccccc2OC1O (stereo not drawn)	103	96	90	-34
COCCNC(=O)c1ccc(CSc2nc3ccncc3n2Cc2ccccc2)cc1	111	108	88	-16
O=C(OCc1ccco1)C1c2ccccc2Oc2ccccc21	102	97	83	-2
COCCN(Cc1nnc(-c2cccs2)o1)C(=O)c1cc2ccccc2o1	x	75	82	-22
CCSc1nnc(-c2ccccc2)n1-c1ccccc1	105	101	100	11
COc1ccccc1C1CCN(C(=O)CSCc2cccc3ccccc23)CC1	106	90	90	-37
Cc1cccc(Cn2c(=O)n(Cc3ccccc3)c(=O)c3c(C)c(C)sc32)c1	99	109	91	x
C/C(=N\N)c1ccc2c(c1)-c1ccccc1C2	x	101	101	3
CC(C)c1ccc(S(=O)(=O)c2cn(CC(=O)Nc3ccc(Cl)cc3)c3ccccc3c2=O)cc1	101	x	x	0

Part of the list above, with bars between the fields:
canonical_smiles | GIV-Gai inh | Sa growth 42C | Sa growth 42C second temp | HCMV UL50-53 inh
CC(C)(C)OC(=O)N1CCC(c2c(C(=O)Nc3ccc4c(c3)OCO4)cnn2-c2ccc(F)cc2F)CC1 | 112 | 84 | 82 | x
COCCNC(=O)c1ccc(CSc2nc3ccncc3n2Cc2ccccc2)cc1 | 111 | 108 | 88 | -16
CCC(C)C1Nc2ccc(C(=O)NCCc3ccc(OC)c(OC)c3)cc2NC1=O (stereo not drawn) | 101 | 86 | 80 | -36
CC(C)(C)NC(=O)Cn1nnc(-c2ccc3c(c2)OCO3)n1 | 105 | 91 | 82 | -30
CSc1nc2c(c(=O)n1C)C1(CCCCC1)Cc1ccccc1-2 | 116 | x | x | -1
Cc1cccc(NC(=O)CCn2cnc3ccccc3c2=O)c1 | 106 | 100 | 97 | x
COCCN(Cc1nnc(-c2cccs2)o1)C(=O)c1cc2ccccc2o1 | x | 75 | 82 | -22

Later entries.
SMILES	GIV-Gai inh	Sa growth 42C	Sa growth 42C second temp	HCMV UL50-53 inh
CCOC(=O)c1ccc(NC(=O)CCc2nc3cccnc3n2Cc2cccs2)cc1	129	112	82	-20
Cc1cc(C)c(NC(=O)C2CCN(c3nnc(C)c4c(C)n(-c5ccccc5)nc34)CC2)c(C)c1	104	85	88	x
CCOC(=O)Cc1nnc2c(Nc3ccccc3OC)nc3nonc3n12	98	93	98	-11
O=C(CSc1cc(Cl)ccc1Cl)NCCCn1ccnc1	x	94	99	23
CCOC(=O)Cc1cc(=O)n2[nH]c(C(C)(C)C)cc2n1	99	110	83	-15
CCOC(=O)c1nc2ccccc2nc1NCCOC	x	69	61	-101
NC(C(=O)O)C(O)(c1ccccc1)C(F)(F)C(F)(F)F (stereo not drawn)	x	164	86	-17
CCN(CC)S(=O)(=O)c1ccc(NC(=O)COc2ncnc3sc(C)c(C)c23)cc1	x	111	93	7
CC1CCC(NC(=O)C2(C)Cc3ccccc3C(=O)N2Cc2ccc(F)cc2)CC1 (stereo not drawn)	103	108	91	-24
Cc1ccccc1-c1nn2c(=O)cc(N3CCN(C(=O)Nc4ccccc4)CC3)nc2s1	97	x	x	-11
COc1ccc(Cn2c(SCc3ccc(C(=O)NC(C)C)cc3)nc3cccnc32)cc1	106	113	82	x
C/C=C(/C)C(=O)OC1CC(O)(C(C)C)C2C(OC(=O)c3ccc(O)cc3)CC(C)=CCC12C (stereo not drawn)	x	6.0*	1.2*	-14
COc1ccc(-c2nnc(Nc3ccc(OC)c(C(N)=O)c3)c3ccccc23)cc1	107	93	74	-115
N#Cc1ccccc1NC(=O)c1cnc(N2CCOCC2)c2ccccc12	112	98	84	x
CCOC(=O)c1nccn1CC(=O)Nc1cccc(Cl)c1C	98	83	85	-22
CC(C)c1ccc(NC(=S)NCCO)cc1	103	101	91	-18
CC(C)CNC(=O)C1=CC(c2cccs2)=NS(=O)(=O)N1C	102	88	88	x
Cc1ccc(-c2nc3ccccc3nc2NN)cc1	x	123	73	-79
COc1cccc(C2=NS(=O)(=O)N(C)C(C(=O)NC(C)(C)CO)=C2)c1	104	108	96	-29
O=C(/C=C/c1ccc2c(c1)OCCO2)NC1CCCCC1	x	141	95	0
COc1ccc(O)c(C2Nc3ccccc3-n3c(-c4ccccc4)c4c(=O)n(C)c(=O)n(C)c4c32)c1 (stereo not drawn)	101	124	79	-5
CCOC(=O)C1CCCCN1S(=O)(=O)c1ccc2c(c1)C(=C(C)C)C(=O)N2 (stereo not drawn)	105	99	78	-28
CCc1cc2c3c([nH]c2cc1S(=O)(=O)NCCN1CCc2ccccc2C1)CC(C)(C)CC3=O	102	x	x	-16
CCOc1ccc(CCNC(=O)CN2C(=O)CSc3ccccc32)cc1OCC	103	114	84	5
CCS(=O)(=O)N1CCN(c2cc(N3CCCCC3)nc(C)n2)CC1	109	x	x	-32
Next section:
SMILES	GIV-Gai inh	Sa growth 42C	Sa growth 42C second temp	HCMV UL50-53 inh
COc1ccc(NC(=O)c2nc3ccccc3n(C)c2=O)cc1	101	x	x	-216
COc1cccc(N2CCCn3c2nc2c3c(=O)n(Cc3c(F)cccc3Cl)c(=O)n2C)c1	98	x	x	-18
CCN1CCN(CCCNC(=O)c2ccc3c(Cl)c4c(nc3c2)CCCC4)CC1	110	72	98	-10
CC1(C)CC(C(CC(=O)O)Cc2ccccc2)CCO1 (stereo not drawn)	107	102	77	1
Cc1csc2nc(COC(=O)c3cccc(NC(=O)COc4ccc(Cl)cc4)c3)cc(=O)n12	104	98	97	x
COc1cc(C(=O)C(C#N)c2nc3ccccc3s2)cc(OC)c1OC (stereo not drawn)	x	81	77	-14
O=C(CCBr)N1CCN(C(=O)CCBr)CC1	x	87	86	-45
N#CCCN(Cc1ccccc1)S(=O)(=O)c1ccccc1	101	103	82	-31
CN(C)c1ccc(CN2C(=O)CCC2(C)C(=O)N2CCCC2)cc1 (stereo not drawn)	111	106	93	-4
COc1cc(/C=C2\SC(=S)N(CC(=O)Nc3ncc(Cc4ccccc4Cl)s3)C2=O)cc(OC)c1OC	114	x	x	-37
Cc1cc2cc(CNC(=O)Cc3cccc4ccccc34)ccc2[nH]1	99	102	90	x
O=C(Oc1ccc2c3c(c(=O)oc2c1)CCC3)C1CCCCC1	98	95	92	-7
CCNC(=S)N/N=C/c1ccc(O)cc1	x	81	88	-27
COC(=O)C1=NOC2(CC(=O)N(c3ccc(Cl)cc3)C2=O)C1 (stereo not drawn)	101	98	94	x
O=C1Nc2ccccc2SC1C1C(=O)Nc2ccccc21 (stereo not drawn)	x	80	86	-22
CC1=C(C(=O)OC2CCCCC2)C(c2sccc2C)n2nnnc2N1 (stereo not drawn)	113	x	x	5
c1ccc(-c2nnc(-n3nnc4ccccc43)c3ccccc23)cc1	102	x	x	-2
COc1ccc(-n2c(-c3ccc(C)cc3)cc3c2CC(C)(C)CC3=O)cc1Cl	96	97	84	-36
O=C(O)c1cc(-c2ccccc2)nc2n[nH]c(-c3ccc(F)cc3)c12	113	x	x	-17
CCOC(=O)c1c(-c2ccc(C)cc2)csc1NC(=O)c1nc(SCC)ncc1Cl	98	110	89	-12
CC(C)C(=O)O/N=C(\N)c1ccccc1	108	97	106	6
CCCCC1(CC)C(=O)NC(=O)NC1=Nc1ccc(OC)cc1 (stereo not drawn)	107	78	86	x
Cc1ccc(NC2=NCC(=O)N2C2CCCC2)cc1C	108	104	93	6
O=c1c(Cl)c(N2CCN(CCO)CC2)cnn1-c1ccccc1	104	95	81	-28
CS(=O)(=O)c1ccc(S(C)(=O)=O)s1	x	82	91	-11
(continued)
SMILES	GIV-Gai inh	Sa growth 42C	Sa growth 42C second temp	HCMV UL50-53 inh
CCOc1c(Cl)cc(CNc2ccc3[nH]c(=O)[nH]c3c2)cc1OC	96	106	91	-34
CCOC(=O)C1CCCN(C(=O)c2cc(Nc3ccc(OC)cc3)nc3ccccc23)C1 (stereo not drawn)	103	119	92	x
N#C/C(=C\Nc1cnccn1)S(=O)(=O)c1ccc(C(F)(F)F)cn1	99	118	102	15
CCc1cc2c(=O)c(-c3ccccn3)coc2cc1O	101	117	94	-16
COc1ccc(-c2noc(N3CCC(C(=O)O)CC3)n2)cc1OC	100	96	92	-33
CCOCC(=O)N1CCN(c2cccc(C)c2C)CC1	x	100	84	-12
CSc1sc2c(O)cc(=O)[nH]c2c1C#N	109	82	69	-82
Fc1c(CSC(=S)N2CCOCC2)cccc1CSC(=S)N1CCOCC1	106	88	100	-9

Rewritten with each value named: 3 of the compounds above.
COc1ccc(-c2noc(N3CCC(C(=O)O)CC3)n2)cc1OC
- GIV-Gai inh: 100
- Sa growth 42C: 96
- Sa growth 42C second temp: 92
- HCMV UL50-53 inh: -33
CSc1sc2c(O)cc(=O)[nH]c2c1C#N
- GIV-Gai inh: 109
- Sa growth 42C: 82
- Sa growth 42C second temp: 69
- HCMV UL50-53 inh: -82
CCOC(=O)C1CCCN(C(=O)c2cc(Nc3ccc(OC)cc3)nc3ccccc23)C1 (stereo not drawn)
- GIV-Gai inh: 103
- Sa growth 42C: 119
- Sa growth 42C second temp: 92
- HCMV UL50-53 inh: x

Rows were taken by chance; about 0.85% have a hit in one of these screens.
